Screening data (PubChem BioAssay)
TRPML1 blocker = inhibitors of human TRPML1 channel; actives 0.02% (n = 390,000); Q9GZU1; TRPML1-inducible cells, Ca2+ dye fluorescence, FDSS; stronger effect = lower value; inhibition of EC80 agonist-evoked calcium signal; activity change, negative = inhibition, % (no concentration beside the values); in the data active means activity change below about -50%; inconclusive means about -30% to -50%; inactive means above about -30%;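 also: stimulus is agonist 54-4 at its EC80 concentration; % is scaled to controls: 0 for no effect and ±100 for the full control effect; compound concentration not given in the record; the text of the record puts the active cut at -80%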
Target sequence (Q9GZU1 whole entry, looked up): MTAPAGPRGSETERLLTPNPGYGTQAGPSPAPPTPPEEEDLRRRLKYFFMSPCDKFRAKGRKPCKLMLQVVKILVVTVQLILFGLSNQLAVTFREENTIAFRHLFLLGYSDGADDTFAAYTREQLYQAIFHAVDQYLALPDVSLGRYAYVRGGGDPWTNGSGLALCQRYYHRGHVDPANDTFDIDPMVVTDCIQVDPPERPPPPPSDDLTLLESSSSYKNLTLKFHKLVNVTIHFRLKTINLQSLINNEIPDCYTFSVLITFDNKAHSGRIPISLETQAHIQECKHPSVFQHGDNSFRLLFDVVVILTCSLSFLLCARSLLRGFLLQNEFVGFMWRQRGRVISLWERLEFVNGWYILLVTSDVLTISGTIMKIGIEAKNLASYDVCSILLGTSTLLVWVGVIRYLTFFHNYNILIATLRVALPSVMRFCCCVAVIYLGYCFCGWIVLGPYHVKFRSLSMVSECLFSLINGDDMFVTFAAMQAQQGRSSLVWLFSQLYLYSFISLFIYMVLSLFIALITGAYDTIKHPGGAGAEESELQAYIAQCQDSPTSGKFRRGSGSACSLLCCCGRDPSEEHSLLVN
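Calcium fluorescence in TRPML1-DL cells induced overnight with Tet: a 110 s read after compound pin addition, then a 110 s antagonist read after challenge with 54-4 at 4 uM final (EC80).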
Six1-Eya2 inh = blocks human Six1 binding to Eya2; Q15475+O00167; AlphaScreen GST-Six1/His-Eya2 binding, biochemical; stronger effect = lower value; control for the full effect not named in the record; activity change, % (no concentration beside the values); actives 0.56% (n = 360,000); AID 651725; in the data active = activity change below about -65%; inconclusive = about -30% to -65%; inactive = above about -30%; also: % is scaled to controls: 0 for no effect and ±100 for the full control effect; compound concentration not given in the record
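Compounds are tested against tagged Six1 and Eya2 proteins bridged by glutathione donor and nickel acceptor beads; after a one-hour incubation at 37 °C without light, AlphaScreen emission is recorded.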
CtBP-E1A inh = CtBP/E1A binding inhibition. AlphaScreen GST-E1A/His-CtBP binding, 1536-well; stronger effect = lower value; control for the full effect not named in the record. activity change, % (no concentration beside the values). actives 0.49% (n = 340,000). AID 651724; in the data active means activity change below about -65%; inconclusive means about -30% to -65%; inactive means above about -30%; also: % is scaled to controls: 0 for no effect and ±100 for the full control effect; compound concentration not given in the record
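AlphaScreen with 125 nM GST-E1A and 125 nM His-CtBP (5X stocks) in Tris pH 8.0, 300 mM NaCl, BSA, Tween 20, TCEP. Compounds preincubated 2 h at 37 deg C, then glutathione donor/nickel acceptor beads added for 1 h at 37 deg C in dark.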
TRPML1 agonist = human mucolipin-1 channel agonism; Q9GZU1; TRPML1-expressing cells, Ca2+ dye fluorescence, FDSS; host cell line not named in the record; reference of the full effect not given here; activation, % (concentration not given with the values); actives 0.12% (n = 410,000); AID 624414; in the data active = activation above about 50%; inconclusive = about 30% to 50%; inactive = below about 30%; also: 0% is about no effect; the text of the record puts the active cut at 80%
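TRPML1-DL cells, Tet-induced overnight (~16 h, 37 degrees C), loaded 45-90 min at room temperature with Ca8 no-wash calcium dye plus quencher. FDSS fluorescence: 10 s baseline, compound pin-transfer, 110 s agonist read, then EC80 54-4 (4uM final) and 110 s antagonist read.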
PINK1 expr mod = PINK1 expression modulation; PINK1 immunofluorescence, high-content cytometry, 24 h; Potency, µM (top dose mostly 76.6 µM), without a hit: top-dose activation (PINK1 increase), hits mostly activators; actives 0.2% (n = 410,000); active = well fitted activation curve with a large enough effect; inconclusive = small, poorly fitted or top-dose-only effect; inactive = flat fitted curve, though single readings scatter; cell line not stated here;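 also: potency is read from the fitted curve at half-maximal effect; % of control where 0% means no effect; nearly all actives have a fitted effect of over 65% in size; a mitochondrial uncoupler was the plate control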
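Measures PINK1 amount and localization on or inside mitochondria by immunofluorescence. Stable cells get compounds at 5 concentrations for 24 hours before fixation and staining; CCCP controls included.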
D2 agonist = activates the human D2 dopamine receptor; P14416; DiscoveRx PathHunter D2 beta-arrestin, luminescence, 90 min; 100% = 57 uM dopamine signal; activation, % (concentration not given with the values); actives 0.084% (n = 360,000); AID 624465; in the data active = activation above about 40%; inconclusive = about 15% to 40%; inactive = below about 15%; also: compound concentration not given in the record; the text of the record calls up to 30% inactive
Target sequence (P14416 whole entry, looked up): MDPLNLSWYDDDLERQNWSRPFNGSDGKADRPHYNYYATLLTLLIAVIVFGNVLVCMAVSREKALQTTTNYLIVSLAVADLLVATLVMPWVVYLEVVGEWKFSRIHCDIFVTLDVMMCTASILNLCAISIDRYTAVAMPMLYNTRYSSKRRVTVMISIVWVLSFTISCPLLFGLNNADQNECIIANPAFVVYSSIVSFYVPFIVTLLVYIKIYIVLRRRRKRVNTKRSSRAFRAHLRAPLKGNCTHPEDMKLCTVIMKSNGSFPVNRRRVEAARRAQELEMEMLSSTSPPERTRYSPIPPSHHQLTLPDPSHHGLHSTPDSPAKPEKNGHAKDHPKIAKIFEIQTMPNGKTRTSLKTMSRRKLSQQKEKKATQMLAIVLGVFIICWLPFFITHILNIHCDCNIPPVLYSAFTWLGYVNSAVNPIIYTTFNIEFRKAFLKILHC
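Agonist mode: compounds alone added to overnight-plated D2 PathHunter cells for 90 min at 37 C, with 57 uM final dopamine (EC100) defining full response. Beta-arrestin recruitment detected by chemiluminescent reagent, read after 1 h at ambient temperature.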
An asterisk follows results filed as active; ? = inconclusive; nt = not tested or not shown; [ ] = remark or other dose.

SMILES | TRPML1 blocker | Six1-Eya2 inh | CtBP-E1A inh | TRPML1 agonist | PINK1 expr mod | D2 agonist
CC1(C(=O)NS(=O)(=O)c2ccccc2)CCN1C(=O)CC(c1ccccc1)c1ccccc1 (stereo unspecified) | nt | 2 | 6 | -0.9 | 2.2% | 5.2
O=C(O)c1ccc([N+](=O)[O-])c(CS(=O)(=O)c2ccc(Cl)cc2)c1 | -20 | 2 | 0 | 1.3 | -2.0% | -6.4
Cc1ccccc1C(=O)NC(CC(C)C)C(=O)Nc1cccc(S(=O)(=O)N(C)C)c1 (stereo unspecified) | 6 | 30 | nt | 0.5 | 11% | -9.1
Cc1ccc(OCCNC(=O)c2ccccc2F)cc1 | -3 | 9 | 20 | -1.1 | 1.5% | -3.7
O=C(CN1CCN(C(=O)C2CCCO2)CC1)Nc1cc(C(F)(F)F)ccc1Cl (stereo unspecified) | -7 | 8 | 0 | 0.6 | -1.7% | -1.4
O=[N+]([O-])c1cccnc1NCCc1ccccc1 | -5 | 3 | 0 | -0.3 | 2.2% | -5.0
Cc1ccc(S(=O)(=O)N(C)C)cc1-n1c(SCC(=O)Nc2ccccc2)nc2ccccc2c1=O | -5 | 2 | -26 | 2.7 | 1.4% | 2.9
CCCCN(CC)C(=O)c1ccc(Cl)cc1 | 30 | 3 | 0 | -0.2 | 0.2% | -2.8
CC1CC(C)(C)CC2(C1)NC(=O)N(CC(=O)Nc1cc(C(F)(F)F)ccc1N1CCCCC1)C2=O (stereo unspecified) | 58 | -1 | -3 | 3.4 | -0.1% | 5.6
Cc1c(C)n(C(=O)CN2CCC(C(N)=O)CC2)c2ccccc12 | -3 | 8 | -3 | 0.1 | -3.2% | -1.7
Cc1ccc(-c2nc(C(=O)NCC3CCCO3)cc3c2[nH]c2ccccc23)cc1 (stereo unspecified) | nt | 5 | -3 | nt | 0.1% | 9.6
COc1cc(NC(=O)CNc2cccc(S(=O)(=O)N3CCOCC3)c2)cc(OC)c1 | 8 | -6 | -13 | 0.0 | 3.8% | -1.7
COc1cccc(CN(c2ccc3c(c2)CCC3)S(=O)(=O)c2ccc(-n3cnnn3)c(OC)c2)c1 | 3 | 1 | 6 | 0.1 | -0.2% | -3.6
O=C(Nc1ccccc1)c1cccnc1NCCc1ccccc1 | 8 | 17 | 7 | 2.0 | 15% | 0.0
CN(C)C(=C(C#N)C#N)N1CCN(c2ccc(Cl)c(Cl)c2)CC1 | 23 | -5 | -2 | 1.8 | -0.1% | -0.1
CC(C)c1ccc(S(=O)(=O)c2cnc(SCC(=O)Nc3ccc4c(c3)OCCO4)[nH]c2=O)cc1 | -19 | nt | nt | -0.5 | 1.1% | nt
COc1ccc(-n2nnnc2Sc2ccc(S(=O)(=O)N3CCOCC3)cn2)cc1 | 18 | -3 | -2 | 0.7 | 0.2% | 0.9
O=C(O)c1ccc(CNC(=O)C2CCCN2C(=O)OCc2ccccc2)cc1 (stereo unspecified) | 3 | 5 | 9 | 1.1 | -1.3% | 1.8
CC[C@H](C)[C@H]1O[C@]2(CC[C@@H]1C)C[C@@H]1C[C@@H](CC=C(C)[C@@H](O[C@H]3C[C@H](OC)[C@@H](O[C@H]4C[C@H](OC)[C@@H](O)[C@H](C)O4)[C@H](C)O3)[C@@H](C)C=CC=C3CO[C@@H]4[C@H](O)C(C)=C[C@@H](C(=O)O1)[C@]34O)O2 | -5 | -3 | 8 | -0.2 | 0.5% | -1.7
Cc1ccccc1S(=O)(=O)Cc1ccc(C(=O)N2CC(C)CC(C)C2)o1 (stereo unspecified) | -8 | -6 | 3 | 0.3 | -0.4% | -3.5
Cn1c2c(c(=O)n(C)c1=O)NC1(N2)C(=O)Nc2ccccc21 (stereo unspecified) | 1 | ? | nt | -0.2 | 1.9% | -16
COc1ccc(C)cc1NS(=O)(=O)c1cn(C)c(=O)n(C)c1=O | 0 | 0 | 2 | -0.3 | 1.7% | 0.1
CNC(=O)[C@@]1(Cc2ccccc2)C=C[C@@H](C)N1C(=O)OC | 39 | 2 | 7 | -0.8 | -0.1% | -1.3
CCOC(=O)Nc1cccc2c1-c1ccc([N+](=O)[O-])cc1C2=O | 6 | 0 | -6 | 1.6 | 8.0% | 9.2
Cc1ccc(NC(=O)c2ccccc2Cl)c(Cl)c1 | 4 | 12 | 15 | -0.5 | -1.2% | -1.3
O=S(=O)(NCCc1ccccc1)c1cccc2cccnc12 | -8 | -9 | -18 | 3.1 | -0.3% | 5.8
CC(C)(C)NC(=O)c1cccc2c1-c1ccccc1C2=O | -29 | 0 | nt | 1.0 | 0.4% | -4.7
CN(C(=O)COC(=O)c1c2c(nc3ccccc13)CCCC2)c1c(N)n(Cc2ccccc2)c(=O)[nH]c1=O | 2 | -3 | -1 | 0.0 | 1.4% | 0.9
FC(F)(F)c1ccc(Cl)c(-n2c(-c3cc(C4CC4)[nH]n3)n[nH]c2=S)c1 | -7 | -18 | -9 | -0.3 | -2.4% | -2.1
Cn1c(SCc2cccc(Br)c2)nc2c1c(=O)[nH]c(=O)n2C | 11 | -2 | 3 | 0.1 | 4.7% | -0.8
COc1ccccc1CCC(=O)Nc1nccs1 | -6 | -2 | 0 | -0.3 | 1.8% | -0.2
CC(=O)NCCc1ccc(S(=O)(=O)Nc2ccc(C)c(S(=O)(=O)N3CCOCC3)c2)cc1 | 29 | -9 | -25 | -0.4 | 0.2% | -1.9
O=C(CSCC(=O)N1CCCCC1)OCC(=O)c1c[nH]c2ccccc12 | -2 | 1 | -8 | 2.4 | 0.5% | 3.4
Cc1ccc([N+](=O)[O-])c(NC(=O)COC(=O)CCNS(=O)(=O)c2cccs2)c1C | -1 | 4 | 2 | -1.2 | 0.9% | -1.7
CCCSc1nc2ccsc2c(=O)n1CC | -26 | 0 | 2 | 0.4 | 1.4% | -6.5
Cn1cnnc1Sc1ccc(C(=O)NCCC23CC4CC(CC(C4)C2)C3)cc1[N+](=O)[O-] | 9 | 7 | 28 | 0.2 | -2.4% | 2.1
O=C1NC(=Nc2ccc(O)cc2)S/C1=C\C=C\c1ccco1 | nt | -15 | -1 | nt | 5.5% | -2.3
COc1cc(NCCCn2cnc3c(OCc4ccccc4)ncnc32)cc(OC)c1OC | -16 | -23 | -11 | -0.4 | -0.8% | 3.4
COc1ccc(CNC(=O)C[C@H]2C[C@H](C(=O)N3CCCCC3)[C@@]3(C)c4[nH]c5cc(CCC(=O)N(C)C)ccc5c4CCN3C2=O)cc1OC | -7 | -5 | -1 | -0.8 | 0.6% | 1.6
Cc1ccc(S(=O)(=O)NC2CC(C)(C)NC(C)(C)C2)cc1 | 23 | 1 | 0 | 0.4 | 0.4% | -0.2
O=C(COC(=O)c1cccc(-n2cnnn2)c1)c1ccc(F)cc1 | 5 | -3 | 4 | 0.1 | -1.7% | -4.2
CCOc1ccccc1N(C)C(=O)C1CCN(S(=O)(=O)c2cccc3nonc23)CC1 | 13 | -9 | -4 | 0.0 | -2.0% | -1.0
COc1ccc2c(c1)-c1nc(NC(=O)c3cc(OC)c(OC)c(OC)c3)sc1CC2 | 14 | nt | nt | 0.3 | 3.8% | nt
Cc1ccccc1NC(=O)c1cccc(N2C(=O)C3CCC(C)CC3C2=O)c1 (stereo unspecified) | ? | 1 | 6 | 0.6 | 1.8% | -3.6
COc1ccc(-c2csc(NC(=O)CSc3nc4ccccc4c(=O)[nH]3)n2)cc1 | 22 | ? | -3 | -0.7 | 28% | -0.6

Brought forward from above: five compounds; new compounds follow.
SMILES | TRPML1 blocker | Six1-Eya2 inh | CtBP-E1A inh | TRPML1 agonist | PINK1 expr mod | D2 agonist
O=C(COC(=O)c1cccc(-n2cnnn2)c1)c1ccc(F)cc1 | 5 | -3 | 4 | 0.1 | -1.7% | -4.2
CCOc1ccccc1N(C)C(=O)C1CCN(S(=O)(=O)c2cccc3nonc23)CC1 | 13 | -9 | -4 | 0.0 | -2.0% | -1.0
COc1ccc2c(c1)-c1nc(NC(=O)c3cc(OC)c(OC)c(OC)c3)sc1CC2 | 14 | nt | nt | 0.3 | 3.8% | nt
Cc1ccccc1NC(=O)c1cccc(N2C(=O)C3CCC(C)CC3C2=O)c1 (stereo unspecified) | ? | 1 | 6 | 0.6 | 1.8% | -3.6
COc1ccc(-c2csc(NC(=O)CSc3nc4ccccc4c(=O)[nH]3)n2)cc1 | 22 | ? | -3 | -0.7 | 28% | -0.6
O=[N+]([O-])c1cccc(S(=O)(=O)[N-]c2nc3ccccc3nc2-n2cc[n+](Cc3ccccc3)c2)c1 | -12 | 8 | 0 | 0.7 | 0.3% | -5.0
O=C(c1cccc(Cl)c1)N1CCN(S(=O)(=O)c2ccc(Cl)s2)CC1 | -3 | 4 | 2 | 1.0 | -0.9% | -0.4
CCN(CC(=O)Nc1c(F)cccc1F)C(=O)C1CC1 | -22 | -1 | 1 | -0.5 | 2.4% | -3.4
O=C(CSc1nccc(=O)[nH]1)NCc1ccc2c(c1)OCO2 | 35 | 10 | 8 | 0.6 | -1.3% | -2.2
COc1ccc(N(CC(=O)Nc2ccc(C)cc2C)S(=O)(=O)c2ccccc2[N+](=O)[O-])c(OC)c1 | 4 | -12 | 1 | 4.6 | -1.7% | 2.1
Cc1cc(C(=O)N/N=C/c2cc(N=Nc3ccccc3)ccc2O)n[nH]1 | -5 | -90* | -1 | -0.3 | 3.1% | -6.0
COc1ccc(C2C(C(C)=O)=C(O)C(=O)N2c2ccc(O)cc2)cc1 (stereo unspecified) | 2 | 1 | -2 | 0.0 | 1.8% | 4.8
CC(CC(=O)NC(C)c1ccc2c(c1)OCCO2)c1ccccc1 (stereo unspecified) | 42 | 2 | 3 | 1.2 | -1.7% | 3.2
C/C=C(\C)CN1CCc2cc(OC)c(OC)cc2C1 | -7 | -1 | 1 | 1.0 | 3.9%[38.3 µM] | 1.3
CN(C)c1ccc(CN(Cc2ccco2)C(=O)c2ccc(F)cc2)cc1 | -14 | nt | nt | 1.2 | -0.7% | nt
CC(C)(C)OC(=O)NCCCC[C@H](NC(=O)c1nc[nH]c1C(=O)NC(c1ccccc1)c1ccccc1)C(=O)OC(C)(C)C | 5 | 8 | -2 | -0.2 | 1.9% | -3.8
Cc1ccc(CS(=O)(=O)CCC(=O)NCc2ccccn2)cc1 | 12 | -2 | 2 | -0.9 | 0.4% | -1.3
O=C(O)C1(NS(=O)(=O)c2ccc(Cl)cc2)CCCCC1 | 9 | -3 | 3 | -0.1 | -0.6% | -0.8
COC(=O)Cc1ccc(NC(=S)NCc2ccco2)cc1 | -3 | -8 | -11 | 0.0 | 0.3% | -1.5
Cc1nc2c(c(=O)c3ccccc3n2C)c(=O)n1C1CCCCCC1 | 8 | -18 | -10 | ? | 3.2% | 0.2
COc1ccc(-c2cc(C(F)(F)F)n3nc(C(=O)NCc4ccco4)cc3n2)cc1 | 7 | -8 | -9 | 1.9 | 15%[38.3 µM] | -2.4
COc1ccc2c(c1)C(=O)N(c1ccccc1OC)C(=O)C2 | -19 | 1 | -13 | -0.7 | -2.0% | -5.5
